Screening results as filed in PubChem.
Ecoli rRNA inh: inhibits bacterial ribosomal RNA function over humanized ribosomes; E. coli WT GFP vs humanized-ribosome RFP mutants, fluorescence, 24 h; active compounds read low; DMSO median 0, no signal -100; GFP signal change (wild-type ribosome), % (no concentration beside the values); 1.6% of 350,000 active; AID 720706;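 active = significant combined selectivity score with lowered wild-type GFP, culture density cut under 30%, mutant RFP and density less affected; inactive = any of these conditions unmet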; note: one replicate is shown; some compounds called inactive have numbers as strong as hits
FGF22 binding: shifts melting point of recombinant human FGF22; Q9HCT0; recombinant FGF22 thermal shift, SYPRO orange fluorescence; percent of sucrose octasulfate shift, DMSO zero; calls only at 9.99 µM; 1.5% of 340,000 active;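 active = melting point raised past a set limit in the mean and every replicate; three in four hits are not shown here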
Target sequence (Q9HCT0 whole entry, looked up): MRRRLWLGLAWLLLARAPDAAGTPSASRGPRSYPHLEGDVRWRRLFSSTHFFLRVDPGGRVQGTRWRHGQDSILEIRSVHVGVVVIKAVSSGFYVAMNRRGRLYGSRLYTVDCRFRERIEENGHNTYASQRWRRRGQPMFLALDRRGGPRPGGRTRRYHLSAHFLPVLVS
MLL AF4-AF9 inh: inhibitors of human MLL-AF4/AF9 interaction. P42568. 0.47% of 350,000 active. inhibition, % at 10 µM. AlphaScreen, biotin-AF4 peptide binding to FLAG-AF9;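 active = every replicate reaching a set inhibition limit, whatever the replicate mean, cut at about 25% in these data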;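 note: 0% = plate neutral control median and 100% = total signal loss; the record names both 10 and 1 µM as test concentration; the first replicate is given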
Target sequence (P42568 whole entry, looked up): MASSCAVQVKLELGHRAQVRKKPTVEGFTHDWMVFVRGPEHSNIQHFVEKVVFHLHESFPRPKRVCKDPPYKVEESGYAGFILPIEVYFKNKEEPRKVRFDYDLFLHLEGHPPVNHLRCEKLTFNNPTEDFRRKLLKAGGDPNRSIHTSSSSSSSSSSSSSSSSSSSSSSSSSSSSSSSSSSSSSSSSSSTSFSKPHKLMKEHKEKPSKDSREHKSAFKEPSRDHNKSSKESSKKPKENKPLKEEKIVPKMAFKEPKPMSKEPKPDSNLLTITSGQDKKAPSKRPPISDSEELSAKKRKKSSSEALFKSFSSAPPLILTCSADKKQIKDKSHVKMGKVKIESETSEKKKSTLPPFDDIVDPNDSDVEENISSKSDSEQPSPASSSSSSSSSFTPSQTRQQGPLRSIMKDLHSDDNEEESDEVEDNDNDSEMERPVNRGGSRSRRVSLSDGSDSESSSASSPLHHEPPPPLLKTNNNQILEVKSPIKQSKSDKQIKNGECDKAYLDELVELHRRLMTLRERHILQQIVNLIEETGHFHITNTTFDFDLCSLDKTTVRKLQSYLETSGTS
Ecoli rRNA inh OD600: also measured in Ecoli rRNA inh; calls as there; OD600 change, %; measured here: OD600 growth;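 optical density of the mix in the first replicate; 0 = DMSO median and -100 = no signal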
Ecoli rRNA inh RFP: further read-out of Ecoli rRNA inh, marked with its call; RFP signal change, %; measured here: RFP humanized mutant strains;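 first replicate; 0 = DMSO median and -100 = no signal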
* hit, by the source's call; i = inactive; & = joins results of further samples. Not all compounds are listed. The share of hits here may be higher or lower than overall.

SMILES	Ecoli rRNA inh	Ecoli rRNA inh OD600	Ecoli rRNA inh RFP	FGF22 binding	MLL AF4-AF9 inh
O=C1c2ccccc2C(c2nnnn2-c2ccc3ccccc3c2)N1C1CC1 (centres undefined)	-12.9	-11.1	1.2	i	-6.3
CN1[C@@H]2c3ccc(C4=CCCCC4)c(=O)n3C[C@H]1[C@H](CO)[C@H]2C(=O)NCc1ccc(F)cc1	-5.5	-5.4	-1.6	i	-0.4
C#CCN1C=CC(=O)[C@@H](OC(=O)NCCC)[C@H]1c1ccccc1Br	-2.8	-3.1	-0.1	i	-4.0
CNC[C@H]1Oc2c(NC(=O)c3cnccn3)cccc2C(=O)N([C@H](C)CO)C[C@@H]1C	5.3	1.0	-0.5	i	-6.0
Cc1cnc2ccc(F)cc2c1	31.3	41.5	2.3	i	-0.7
COc1ccc(CNC(=O)c2ccc(-c3cnn(C)c3)c3ccoc23)cc1OC	-6.0	-11.0	-3.0	i	-0.7
O=C(c1cccnc1)N1C[C@@H]2[C@H](c3ccccc31)[C@@H](CO)N2C(=O)Nc1ccc(F)cc1	1.0	6.6	-1.1	i	-2.4
C[C@@H]1CN([C@H](C)CO)C(=O)c2cccc(NC(=O)C3CC3)c2O[C@H]1CN(C)C(=O)Nc1ccccc1	3.3	7.5	-2.7	i	-4.0
COc1ccccc1Cc1c(-c2ccc(F)cc2)nc2ccc(C)cn12	-0.9	0.7	-2.7	i	-2.1
COc1cccc(NC(=O)N[C@@H]2CC[C@H](CC(=O)N3CCCCC3)O[C@H]2CO)c1	-1.9	-8.5	-0.7	i	0.0
COc1ccc(C#Cc2ccc([C@H]3[C@@H](CO)N4CCCCN(C(=O)Nc5ccccc5)C[C@@H]34)cc2)cc1	7.0	24.5	0.4	i	-3.8
O=C(Nc1nnc([C@H]2C[C@H](O)[C@@H](CO)O2)s1)c1ccccc1F	-25.6	-40.7	-6.9	i	-2.7

Compound profiles, from the list above:
Results for CNC[C@H]1Oc2c(NC(=O)c3cnccn3)cccc2C(=O)N([C@H](C)CO)C[C@@H]1C = Ecoli rRNA inh = 5.3; Ecoli rRNA inh OD600 = 1.0; Ecoli rRNA inh RFP = -0.5; FGF22 binding = i; MLL AF4-AF9 inh = -6.0
Results for O=C(Nc1nnc([C@H]2C[C@H](O)[C@@H](CO)O2)s1)c1ccccc1F = Ecoli rRNA inh = -25.6; Ecoli rRNA inh OD600 = -40.7; Ecoli rRNA inh RFP = -6.9; FGF22 binding = i; MLL AF4-AF9 inh = -2.7
Results for C#CCN1C=CC(=O)[C@@H](OC(=O)NCCC)[C@H]1c1ccccc1Br = Ecoli rRNA inh = -2.8; Ecoli rRNA inh OD600 = -3.1; Ecoli rRNA inh RFP = -0.1; FGF22 binding = i; MLL AF4-AF9 inh = -4.0

Next compounds:
SMILES	Ecoli rRNA inh	Ecoli rRNA inh OD600	Ecoli rRNA inh RFP	FGF22 binding	MLL AF4-AF9 inh
C[C@H]1CN([C@@H](C)CO)C(=O)c2cc(NC(=O)C3CCCCC3)ccc2O[C@@H]1CN(C)C(=O)NC1CCCCC1	2.5	6.7	2.2	i	-7.7
CCCN(C)C[C@H]1Oc2cc(C#C[C@H](C)O)ccc2S(=O)(=O)N([C@@H](C)CO)C[C@H]1C	1.9	-3.7	-4.1	i	0.0
CCC(=O)Nc1ccc2c(c1)OC[C@@H](C)N(CCc1ccccc1)C[C@H](C)[C@H](OC)CN(C)C2=O	0.0	3.6	1.2	i	2.0
CO[C@@H]1CN(C)C(=O)c2cc(NC(=O)NC(C)C)ccc2OC[C@@H](C)N(Cc2ccccn2)C[C@H]1C	-0.3	-4.0	0.7	i	-1.8
CCC(=O)Nc1ccc2c(c1)C(=O)N(C)C[C@H](OC)[C@H](C)CN(C(C)=O)[C@@H](C)CO2	1.0	1.9	0.1	i	0.7
CC(=O)N1[C@@H]2CN(C(=O)c3ccccc3)c3ccccc3[C@@H]2[C@@H]1CO	-2.8	0.1	-3.2	i	-1.1
CCCNC(=O)N1[C@H](CO)[C@H](c2ccc(C3=CCCC3)cc2)[C@@H]1C#N	1.5	0.9	0.6	i	-0.4
C[C@@H]1CN([C@@H](C)CO)C(=O)Cc2cc(NC(=O)Cn3cnnn3)ccc2O[C@@H]1CN(C)C(=O)NC1CCCCC1	4.0	2.3	0.3	i	-1.5
Cc1cc(C(=O)Nc2cccc3c2O[C@H](CN(C)Cc2ccc(Cl)c(Cl)c2)[C@@H](C)CN([C@H](C)CO)C3=O)n(C)n1	-5.0	-15.1	1.4	i	5.2
CN(CCc1ccccc1)c1cc2c(c3c1ccn3C)C1CCC2O1 (centres undefined)	-29.5	-40.1	-8.3	i	27.6*
O=C(NCC[C@@H]1CC[C@H](NC(=O)c2cccnc2)[C@@H](CO)O1)Nc1ccc(Cl)cc1	-18.4	-21.0	4.2	i	8.8
C[C@H]1CN([C@@H](C)CO)C(=O)c2cccc(NS(=O)(=O)c3cccs3)c2O[C@@H]1CN(C)Cc1ccc(-c2ccccc2)cc1	-2.4	-3.7	-1.9	i	4.6
COc1ccccc1CNC(=O)C[C@H]1C[C@@H]2c3cc(NC(=O)NC4CCCC4)ccc3O[C@@H]2[C@H](CO)O1	-3.4	-0.2	1.0	i	-0.3
CO[C@@H]1CN(C)C(=O)c2cc(NS(=O)(=O)c3cccc(F)c3)ccc2OC[C@H](C)N(C(=O)Cc2cccnc2)C[C@@H]1C	-4.5	-11.8	0.1	i	0.4
C[C@H](NC(=O)C[C@H]1C=C[C@H](NC(=O)Cc2ccccn2)[C@@H](CO)O1)c1ccccc1	1.7	1.6	1.2	i	0.6
C[C@@H]1CN([C@@H](C)CO)C(=O)CCCn2cc(nn2)CO[C@H]1CN(C)S(=O)(=O)c1ccc(Cl)cc1	-0.7	-2.7	0.1	i	-0.3&-0.4&-0.4
OC[C@@H]1CN(Cc2ccc(-c3ccccc3)cc2)C[C@H](n2cnc3c(Nc4ccccc4)ncnc32)O1	-7.0	-6.3	-3.7	i	-2.2
COCCNc1nnc(SCC(=O)c2cc(C)n(C3CC3)c2C)s1	6.2	11.8	0.5	i	4.2
C[C@@H]1CN([C@@H](C)CO)C(=O)c2cc(NS(=O)(=O)c3cn(C)cn3)ccc2O[C@@H]1CN(C)C(=O)Nc1ccccc1	2.4	8.2	1.6	i	-1.2
CC=Cc1ccc2n(c1=O)C[C@H]1[C@H](CO)[C@@H](C(=O)NCC)[C@@H]2N1CC1CCOCC1 (mixture of isomers)	1.1	0.5	0.8	i	0.4
CCCC#Cc1ccc2c(c1)O[C@H](CN(C)C(=O)Nc1ccc(OC)cc1)[C@@H](C)CN([C@@H](C)CO)S2(=O)=O	3.9	-11.6	3.8	i	1.5
OC[C@@H]1CN(Cc2ccc(Cl)cc2)C[C@H](n2cnc3c(NC4CCCC4)ncnc32)O1	-11.0	-39.2	4.2	i	7.7
Cc1noc(C)c1NC(=O)Nc1ccc2c(c1)C(=O)N([C@H](C)CO)C[C@H](C)[C@H](CN(C)Cc1ccc3c(c1)OCO3)O2	3.4	1.2	-1.8	i	0.2
CC(=O)CC1c2cc(F)ccc2C=C(c2ccsc2)N1c1ccc(C#CC2(O)CCCCC2)cc1 (centres undefined)	-13.5	-10.8	1.8	i	-1.7

Marked active in MLL AF4-AF9 inh (from the list above):
SMILES	Ecoli rRNA inh	Ecoli rRNA inh OD600	Ecoli rRNA inh RFP	FGF22 binding	MLL AF4-AF9 inh
CN(CCc1ccccc1)c1cc2c(c3c1ccn3C)C1CCC2O1 (centres undefined)	-29.5	-40.1	-8.3	i	27.6*

New compounds follow:
SMILES	Ecoli rRNA inh	Ecoli rRNA inh OD600	Ecoli rRNA inh RFP	FGF22 binding	MLL AF4-AF9 inh
O=C(Cc1ccncc1)Nc1ccc2c(c1)[C@H]1C[C@@H](CC(=O)NC3CCCC3)O[C@H](CO)[C@H]1O2	1.5	2.9	-0.2	i	0.9
COCC(=O)N(C)C[C@H]1Oc2ncc(C#Cc3ccccc3)cc2C(=O)N([C@H](C)CO)C[C@H]1C	4.0	6.2	-1.7	i	-1.5
COc1ccccc1-c1cnc2c(c1)C(=O)N([C@H](C)CO)C[C@@H](C)[C@H](CN(C)C(C)=O)O2	1.5	-3.3	-1.5	i	-1.7
Cc1ccc(S(=O)(=O)N(C)C[C@@H]2Oc3ccc(NC(=O)NC(C)C)cc3CC(=O)N([C@@H](C)CO)C[C@@H]2C)cc1	0.8	-2.2	0.6	i	1.1
CC(C)C#Cc1ccc([C@@H]2[C@H]3CN(C(=O)c4ccc5c(c4)OCO5)CCCCN3[C@H]2CO)cc1	-56.5	-72.5	-4.0	i	2.3
C[C@@H]1CN([C@@H](C)CO)C(=O)Cc2cc(NC(=O)CCC(F)(F)F)ccc2O[C@H]1CN(C)C(=O)Nc1ccc(F)cc1	3.2	-0.5	-0.7	i	-4.4
COc1ccc(NC(=O)N2CCCCN3[C@H](CO)[C@H](c4ccc(-c5ccccc5C)cc4)[C@H]3C2)cc1	-59.5	-75.2	-10.5	i	17.7
COc1ccccc1NC(=O)C[C@H]1CC[C@H]2[C@@H](COc3ccc(NS(C)(=O)=O)cc3C(=O)N2C)O1	-1.3	4.2	-0.5	i	-0.4
COc1cccc(NC(=O)N(C)C[C@H]2Oc3ncc(C4=CCCCC4)cc3C(=O)N([C@@H](C)CO)C[C@H]2C)c1	-8.0	8.2	-1.0	i	-0.3
N#C[C@@H]1[C@@H](c2ccccc2-c2ccccc2F)[C@H](CO)N1C(=O)C1CCOCC1	-0.2	11.0	2.7	i	0.5
C[C@@H]1CN([C@@H](C)CO)C(=O)c2cc(NC(=O)CCN3CCOCC3)ccc2O[C@H]1CN(C)C(=O)Nc1ccc(C(F)(F)F)cc1	-11.4	-6.3	-2.4	i	-8.3
Cc1noc(C)c1S(=O)(=O)Nc1ccc2c(c1)C(=O)N([C@H](C)CO)C[C@H](C)[C@H](CN(C)C(=O)C1CCCCC1)OCCCC[C@@H](C)O2	0.9	6.5	-1.3	i	1.6
O=C(NCC[C@H]1CC[C@@H](NS(=O)(=O)c2ccc(Cl)cc2)[C@H](CO)O1)c1ccccc1F	1.6	4.2	-0.4	i	-1.8
C[C@@H]1CN([C@@H](C)CO)S(=O)(=O)c2ccc(C#Cc3cccc(F)c3)cc2O[C@@H]1CN(C)S(=O)(=O)c1cn(C)cn1	0.4	-7.6	4.6	i	0.6
C[C@@H]1CN([C@@H](C)CO)C(=O)Cc2cc(NC(=O)C3CCCCC3)ccc2O[C@@H]1CN(C)C(=O)Nc1ccc(C(F)(F)F)cc1	-3.5	0.6	-1.2	i	0.0
C[C@@H]1CN([C@H](C)CO)C(=O)c2cc(NS(C)(=O)=O)ccc2O[C@H]1CN(C)S(=O)(=O)c1cn(C)cn1	2.2	7.4	-1.0	i	-2.3
COc1ccc2c3c(n(C)c2c1)[C@H](CO)N(Cc1ccc(F)cc1)CC31CCN(CC2CC2)CC1	-0.3	-15.6	3.8	i	6.7
CC1=C(C(=O)N(C)C)CC(CC(=O)NC2CCCCC2)C(=O)N1Cc1ccc(F)cc1 (centres undefined)	25.0	19.3	2.9	i	-0.2
CCc1cnc(N2[C@H](C#N)[C@@H](c3ccc(C4=CCCC4)cc3)[C@@H]2CO)s1	1.3	0.7	-0.6	i	1.1
O=C(C1CCC1)N1CC2(C1)[C@H](c1ccccc1)[C@H](CO)N2Cc1cccnc1	3.2	-2.0	-0.6	i	-1.3
C[C@@H]1CN([C@H](C)CO)C(=O)c2cccc(NC(=O)c3ccc(-c4nccs4)cc3)c2O[C@@H]1CN(C)Cc1ccc(C(=O)Nc2ccccc2N)cc1	-4.5	0.2	-0.5	i	1.1
Cc1noc(C)c1NC(=O)N(C)C[C@@H]1OCc2cnnn2CCCC(=O)N([C@H](C)CO)C[C@@H]1C	6.7&0.9	7.3&0.4	-0.7&-0.4	i	-1.9&-1.7
O=C(NCC[C@@H]1CC[C@H](NC(=O)C2CCC2)[C@@H](CO)O1)c1cnccn1	2.0	6.3	-2.3	i	-2.1
CN1C(=O)c2cc(NS(C)(=O)=O)ccc2OC[C@@H]2O[C@H](CC(=O)O)CC[C@@H]21	3.4	0.7	-0.6	i	-1.0
COCC(=O)N1C[C@@H](C)[C@H](OC)CN(C)C(=O)c2ccc(NS(C)(=O)=O)cc2OC[C@@H]1C	1.4	-1.5	-2.0	i	-1.1
CN1C[C@H](O)COC[C@@H]2O[C@@H](CC(=O)N3CCN(c4ccccc4)CC3)CC[C@H]21	3.6	2.4	-1.3	i	-2.6
C[C@@H]1CCCCO[C@H](CN(C)S(=O)(=O)c2ccc(F)cc2)[C@H](C)CN([C@H](C)CO)C(=O)c2cc(NS(=O)(=O)c3ccccc3)ccc2O1	2.4	1.2	16.3	i	0.7
COc1ccc(S(=O)(=O)N(C)C[C@H]2Oc3ccc(NC(=O)Nc4ccc(C(F)(F)F)cc4)cc3CC(=O)N([C@H](C)CO)C[C@@H]2C)cc1	2.8	4.8	1.8	i	-0.4
O=C(C[C@H]1C[C@H]2c3cc(NC(=O)C4CCC4)ccc3O[C@H]2[C@H](CO)O1)NCc1cccnc1	-2.6	-0.9	-3.1	i	-13.1
